Screens as filed in PubChem.
CHT PAM: allosterically activates the human high affinity choline transporter; Q9GZV3; CHT-expressing cells, membrane potential dye, choline EC20; stronger effect = higher value; LV-AA mutant CHT in HEK293 cells; B-score at 10 µM; 310,000 tested, 0.49% active; AID 488977;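 active means initial fluorescence not abnormally high and integrated response B-score, plate-corrected, over 3 SD above library mean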
Target sequence (Q9GZV3 whole entry, looked up): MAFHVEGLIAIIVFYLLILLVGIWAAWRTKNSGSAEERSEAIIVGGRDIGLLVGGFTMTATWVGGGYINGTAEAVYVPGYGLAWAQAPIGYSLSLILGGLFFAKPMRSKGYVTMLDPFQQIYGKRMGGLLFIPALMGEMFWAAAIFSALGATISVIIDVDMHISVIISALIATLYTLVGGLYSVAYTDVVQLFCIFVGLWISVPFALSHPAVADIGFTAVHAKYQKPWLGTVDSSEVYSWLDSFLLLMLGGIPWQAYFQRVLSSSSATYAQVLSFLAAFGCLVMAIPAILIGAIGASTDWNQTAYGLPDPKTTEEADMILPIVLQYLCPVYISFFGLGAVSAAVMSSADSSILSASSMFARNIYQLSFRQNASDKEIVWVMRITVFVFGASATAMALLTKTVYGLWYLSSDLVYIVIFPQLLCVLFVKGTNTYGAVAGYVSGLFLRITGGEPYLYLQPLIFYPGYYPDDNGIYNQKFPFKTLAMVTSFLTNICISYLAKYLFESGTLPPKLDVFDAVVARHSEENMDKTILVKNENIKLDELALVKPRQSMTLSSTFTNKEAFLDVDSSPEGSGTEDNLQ
Calls only; i = inactive. An excerpt; most or all hits stand in other tables.

SMILES,CHT PAM
CSc1snc(SCC(N)=O)c1C#N,i
C=C(CC1([C@@H](NP(=O)(c2ccccc2)c2ccccc2)[C@H]2C[C@@H]2CCCC)CC1)c1ccccc1,i
COC(=O)c1ccc(/C=N/Nc2nc(C)c(C)s2)cc1,i
Cc1c(C(=O)Nc2nc3ccccc3[nH]2)cccc1[N+](=O)[O-],i
CC1CCC(C(C)C)C(OCC(O)CN2CCN(Cc3ccccc3)CC2)C1 (stereo not drawn),i
C=CCNC(=O)c1onc(CSc2ccc(F)cc2)c1C(=O)O,i
CSc1nc(C)cc(Oc2ccc(OCC(N)=O)nn2)n1,i
CCC(CC)C(=O)Nc1cccc(C(=O)NC(C)(C)C)c1,i
COc1ccc(CNC(=O)Nc2ccc(C)c(C)c2)cc1,i
O=C(N/N=C/c1c(F)c(F)c(F)c(F)c1F)c1ccc(Cn2cc(Br)cn2)o1,i
Nc1nc(CN2CCN(c3ccccn3)CC2)nc(Nc2ccc(F)cc2)n1,i
Cc1nn(-c2ccccc2[N+](=O)[O-])c(=O)c2ccccc12,i
CCN1CCN(C(=O)CN(c2cccc(Br)c2)S(=O)(=O)c2ccccc2)CC1,i
COc1ccc2c(c1)C1C=CCC1C(c1cc3c(cc1Br)OCO3)N2 (stereo not drawn),i
S=C(Nc1ccc(Cl)c(Cl)c1)NN1CCOCC1,i
S=c1[nH]c2cc3ccccc3cc2[nH]1,i
O=C1COc2ccc(C(=O)NCc3ccco3)cc2N1,i
CCC(C)(C(=O)NC1CCCCC1)N(Cc1cccs1)C(=O)Cc1cccs1 (stereo not drawn),i
CC1=NNC(=O)C1CCC(=O)N/N=C/c1c(Cl)cccc1Cl (stereo not drawn),i
CCOc1ccc(S(=O)(=O)N2CCOCC2)cc1NC(=O)C1=COCCO1,i
CCOc1cc(NC(=O)c2ccco2)c(OCC)cc1NC(=O)Cc1cccc(OC)c1,i
COC(=O)C1=C(C)N(CCc2cc(OC)c(OC)c(OC)c2)C(=O)N[C@H]1c1cccs1,i
COc1ccc(S(=O)(=O)N2CCOCC2)cc1NC(=O)c1ccc(Cl)cc1,i
Cc1ccc(C)c(NC(=O)NNC(=O)c2cc3ccccc3cc2O)c1,i
O=C(c1cccc(F)c1)N1CCN(S(=O)(=O)c2ccc(C(F)(F)F)cc2)CC1,i
Cc1cccn2c(=O)nc(SCC(=O)N3CCCCCC3)nc12,i
S=c1nc(C2CC2)[nH]c2ccccc12,i
CCCNS(=O)(=O)c1ccc(CCC(=O)NCC2CCCO2)cc1 (stereo not drawn),i
O=C1CC(/C=C/c2ccco2)=Nc2ccccc2N1,i
C=CCNc1nc(C(=O)OCC(=O)c2ccc(OC)cc2OC)cs1,i
CCCN1C2CCCC1CC(NC(=O)c1ccc(F)cc1)C2 (stereo not drawn),i
COc1ccccc1-c1cc(C(=O)NCCCn2ccnc2)no1,i
CC(C)(C)c1ccc2c(c1)N(CC(=O)N1CCCC1)C(=O)CO2,i
Cc1oc(-c2cccc(Cl)c2)nc1CN1CCC(C(=O)N2CCN(c3ccccn3)CC2)CC1,i
CCCc1nnc(NC(=O)c2cccs2)s1,i
Cc1ccc(N(CC(=O)Nc2ccccc2C(=O)N2CCOCC2)S(C)(=O)=O)cc1,i
CCN1CCN(C(=O)CN(c2ccc(F)cc2)S(=O)(=O)c2ccc(OC)c(OC)c2)CC1,i
CC(C)(C)NC(=O)Cn1c(SCC(=O)Nc2nccs2)nc2ccccc21,i
COCc1ccc(CN2CCC(n3nccc3NC(=O)CCCc3ccccc3)CC2)o1,i
CC1=CS(=O)(=O)CC1SC(=S)N(C)C1CCS(=O)(=O)C1 (stereo not drawn),i
Cc1ccc(N/C=C/C(=O)c2ccccc2)cc1C,i
CC(=O)c1ccc(N2CCN(C(=O)/C=C/c3ccc(S(=O)(=O)N4CCOCC4)cc3)CC2)cc1,i
Cc1ccc(C)c(Cn2c(C(C)O)nc3ccccc32)c1 (stereo not drawn),i
O=S(=O)(NC(=S)c1ccccc1)c1ccc(Cl)cc1,i
N/C(=N\OC(=O)Cc1ccccc1[N+](=O)[O-])c1cccc(Br)c1,i
Cc1ccc(CN2C(=O)C(Cc3ccccc3)Nc3ncnc(N4CCN(c5ccccc5)CC4)c32)cc1 (stereo not drawn),i
Cc1ccc(NC(=O)CN(C)S(=O)(=O)c2cccc3nsnc23)cc1Cl,i
NS(=O)(=O)c1cccc(NC(=S)NC(=O)c2cccc([N+](=O)[O-])c2)c1,i
Cc1cc(N2CCOCC2)c(F)cc1C(=O)c1ccccc1,i
O=C(OC(C(=O)NCc1cccs1)c1ccccc1F)c1ccco1 (stereo not drawn),i

Other structures
SMILES,CHT PAM
O=C(NCC(=O)N(Cc1cccs1)C(C(=O)NC1CCCCC1)c1ccco1)c1cccs1 (stereo not drawn),i
O=C(NCCCn1ccnc1)c1ccc(S(=O)(=O)Nc2ccccc2)cc1,i
Cc1cc(Nc2ccc(C(C)C)cc2)n2ncnc2n1,i
CCCCOc1ccc(S(=O)(=O)N2CCN(C)CC2)cc1,i
COC(=O)c1ccc(C(=O)Nc2ccc(C(C)C)cc2N)cc1,i
N#Cc1ccc(C23CC4(C2)[C@H](CN(Cc2ccc(-c5ccccc5)cc2)[C@@H]4c2ccccc2)C3c2ccc(C(F)(F)F)cc2)cc1 (stereo partly drawn),i
Cc1ccc(C)c(C(=O)CCC(=O)NNC(=O)Cn2nc(C)cc2C)c1,i
CC(C)Cn1cc(F)c(=O)n(CC(C)C)c1=O,i
CCOC(=O)c1sc2nc(SCC(=O)N(CC)CC)n(CCCN3CCCC3=O)c(=O)c2c1C,i
Cc1cc(=O)[nH]c(Sc2c(-c3ccccc3)c3ccccc3[nH]c2=O)n1,i
Cn1cnnc1SCC(=O)N1CCC(Cc2ccccc2)CC1,i
Cc1cc(C)cc(-n2ccn(CC(=O)NCCc3ccccc3)c(=O)c2=O)c1,i
COc1ccc(CCN2C(=O)CS/C2=N\NC(=O)c2ccc(C(C)(C)C)cc2)cc1OC,i
CCCCC(=O)NNC(=O)c1c(O)c2ccccc2[nH]c1=O,i
CC(CNC(=O)CN1C(=O)CCSc2ccccc21)c1ccccc1 (stereo not drawn),i
C/C(=N/NC(=O)c1ccc(Cl)cc1Cl)c1cccnc1,i
CC(C)NC(=S)NN=C1c2ccccc2-c2ccccc21,i
Cc1ccccc1-n1nnnc1SCC(=O)Nc1ccc(S(=O)(=O)N2CCCC2)cc1,i
COc1ccc(/C=C/C(=O)c2ccc(Cl)s2)cc1O,i
O=C(O)CCC(=O)Nc1ccc(Sc2ccc([N+](=O)[O-])cc2)cc1,i
COc1ccc(C(=O)NCCc2nnc(SCc3nc4ccccc4c(=O)[nH]3)n2C)cc1,i
Nc1cccc(-n2cccc2)c1,i
COC(=O)[C@]1(CC(C)C)N[C@H](c2ccc(-c3ccc(Cl)c(Cl)c3)cc2)[C@@H]2C(=O)N(C)C(=O)[C@@H]21,i
O=C(NCC1CC1)Nc1cccs1,i
O=C(CCCOc1ccccc1)Nc1ccc2c(c1)OCCO2,i
CC(C)CCNC(=O)CCCc1ccccc1,i
COc1ccc(CCNC(=O)CCN2C(=O)[C@@H]3Cc4ccccc4CN3C2=O)cc1OC,i
CCOC(=O)CNS(=O)(=O)c1ccc(C)cc1,i
O=C(COn1nnc2ccc(C(F)(F)F)cc21)Nc1nnc(-c2ccccc2)o1,i
CCn1c(SCC(=O)Nc2ccc(Cl)cc2)nc2nc3c(cc2c1=O)CCCC3,i
COCCn1c(C)cc(C(=O)COC(=O)/C=C/c2cccc(OC)c2)c1C,i
COc1ccc(/C=N/Nc2nnc(-c3ccccc3)c(=O)[nH]2)cc1,i
O=C(Nc1nc(NC(=O)c2ccco2)n(-c2ccccc2)n1)c1ccccc1,i
CC#CC(=O)N1CCCC(Cc2cccc(OC)c2)(C(=O)OCC)C1 (stereo not drawn),i
Cc1ccccc1/C=N/Nc1ccc(Cl)nn1,i
CC(C)N(Cc1ccccc1)C(=O)CN1C(=O)COc2ccc(S(=O)(=O)NC3CCCC3)cc21,i
CN1C(=O)[C@H]2[C@@H](C3CC3)N3C(=O)CN(Cc4ccc(-c5ccccc5)cc4)C(=O)[C@@]3(C)[C@H]2C1=O,i
CC(C)C[C@H](NC(=O)OC(C)(C)C)C(=O)N/N=C/c1ccc2nccnc2c1,i
CN1CCN(CC#CCC(O)(c2ccccc2)C2CCCC2)CC1 (stereo not drawn),i
COc1ccc(OC)c(C(c2nnnn2CCC(C)C)N2CCN(C(=O)c3ccco3)CC2)c1 (stereo not drawn),i
COc1ccccc1Nc1nc(N)nc(CN2CC(C)CC(C)C2)n1 (stereo not drawn),i
NC(=S)N/N=C/c1ccc(C23CC4CC(CC(C4)C2)C3)cc1,i
N#Cc1nc(-c2ccco2)oc1NCc1ccc(F)cc1,i
Cc1ccc(-c2nc(CSCC(=O)Nc3cc(C)on3)c(C)o2)cc1,i
O=C(OCC(=O)c1ccc(Cl)s1)c1ccc(CO)cc1,i
CCOc1ccc(/C=C(\C#N)C(=O)Nc2cccnc2)cc1,i
O=C(Nc1nnc(C2CC2)s1)c1cc(Cl)sc1Cl,i
Cc1ccc(S(=O)(=O)c2nnn3c2nc(N2CCN(c4ccccn4)CC2)c2ccccc23)cc1,i
CCN(C(=O)CN1C(=O)S/C(=C\c2cccc(Cl)c2)C1=O)C1CCS(=O)(=O)C1 (stereo not drawn),i
COc1ccc(C(=O)NCC(=O)NCc2cc(=O)n(C)c(=O)n2C)cc1,i

7 structures already listed, arranged by molecular weight, lowest first:
SMILES,CHT PAM
CCOC(=O)CNS(=O)(=O)c1ccc(C)cc1,i
O=C(Nc1nnc(C2CC2)s1)c1cc(Cl)sc1Cl,i
COc1ccc(/C=N/Nc2nnc(-c3ccccc3)c(=O)[nH]2)cc1,i
COc1ccccc1Nc1nc(N)nc(CN2CC(C)CC(C)C2)n1 (stereo not drawn),i
O=C(COn1nnc2ccc(C(F)(F)F)cc21)Nc1nnc(-c2ccccc2)o1,i
COc1ccc(OC)c(C(c2nnnn2CCC(C)C)N2CCN(C(=O)c3ccco3)CC2)c1 (stereo not drawn),i
CC(C)N(Cc1ccccc1)C(=O)CN1C(=O)COc2ccc(S(=O)(=O)NC3CCCC3)cc21,i

Continued:
SMILES,CHT PAM
CCOC(=O)C1CCCN(C(=O)c2sc3nc(C)nc(N4CCOCC4)c3c2C)C1 (stereo not drawn),i
OCCN(CCO)CC(O)COc1ccc(C23CC4CC(CC(C4)C2)C3)cc1 (stereo not drawn),i
CCOc1ncccc1C(=O)Nc1c(C)n(C)n(-c2ccccc2)c1=O,i
COC(=O)C(=Cc1ccc(OCc2ccc([N+](=O)[O-])cc2)c(OC)c1)C(=O)OC,i
Cc1cccc(NC(=O)c2ccc(-c3ccccc3[N+](=O)[O-])o2)c1,i
COc1cccc(CNn2cn[nH]c2=S)c1OCc1ccccc1,i
O=C(Nc1ccccc1)/C(=C\c1ccc(F)cc1)NC(=O)c1ccco1,i
CCCc1nnc(SCC(=O)N2CCOCC2)n1CCCOC,i
COc1ccc([N+](=O)[O-])cc1Nc1ncnc2ccccc12,i
C=CCOc1ccc2c(OC)c3ccoc3nc2c1OC,i
CCOC(=O)C1CCCN(Cc2cc(=O)oc3cc(C)c(C)cc23)C1 (stereo not drawn),i
C/C(=N\NC(=O)c1cccc(Cl)c1)c1cccc(NC(=O)c2ccco2)c1,i
Cc1ccc(-c2csc3nnc(SCC(=O)NCc4ccco4)n23)cc1,i
CNCCCOc1cc(C)cc(C)c1C,i
CCOC(=O)C1CCN(C(=O)Nc2ccccc2Cl)CC1,i
CCCN1CCC(=O)N(CCSc2ccc(OC)cc2)CC1,i
CCN(CC)C(=O)N1CCN(C)CC1,i
COc1ccc(-c2c(C#N)c(SCC(=O)c3cc4ccccc4oc3=O)nc(C)c2C(=O)Nc2ccccc2)cc1,i
CC(OC(=O)c1ccc(NS(=O)(=O)c2ccc3[nH]c(=O)[nH]c3c2)cc1)C(=O)Nc1ccc(Cl)cc1 (stereo not drawn),i
COc1ccc(N(C(=O)CCl)C(C(=O)NCCc2ccccc2)c2cccs2)cc1 (stereo not drawn),i
COc1cc(/C=C2/C(=N)N3N=C(CC(=O)N4CCOCC4)SC3=NC2=O)ccc1OC(C)c1ccccc1 (stereo not drawn),i
CCOC(=O)c1c(C)nc(SC)c(C#N)c1-c1ccccc1,i
COn1c(-c2ccccc2)nc2ncccc21,i
O=C(CSc1ccc([N+](=O)[O-])cn1)Nc1ccc(N2CCOCC2)c(Cl)c1,i
COc1ccc(Br)cc1C1SCCN1S(C)(=O)=O (stereo not drawn),i
COc1cccc(/C=N/Nc2ncnc3scc(-c4ccccc4)c23)c1OC,i
O=C(Nc1ccon1)c1ccc(N2CCCCC2)c([N+](=O)[O-])c1,i
Cc1cccc(NC(=O)c2ccc(S(=O)(=O)NCc3cccnc3)cc2)c1,i
CCOc1ccc(S(=O)(=O)N2CCOCC2)cc1NC(=O)C1CSC2(C)CCC(=O)N12 (stereo not drawn),i
CCOc1ccc2nc(NCCNC(=O)C3CC3)c(C)cc2c1,i
CCCCCCc1ccc(N2C[C@H](C)[C@@H](CC(=O)NCc3ccccc3)C2=O)cc1,i
C=C(C)C1CC=C(C)/C(=N\NC(=S)Nc2ccc(C)cc2)C1 (stereo not drawn),i

2 entries from above in a different format.
CCCCCCc1ccc(N2C[C@H](C)[C@@H](CC(=O)NCc3ccccc3)C2=O)cc1
  CHT PAM = i
C=C(C)C1CC=C(C)/C(=N\NC(=S)Nc2ccc(C)cc2)C1 (stereo not drawn)
  CHT PAM = i
